rRNA inh HTS: inhibits bacterial ribosomal RNA function over humanized ribosomes. E. coli WT GFP vs humanized-ribosome RFP mutants, fluorescence, 24 h; hits give low values; DMSO median 0, no signal -100. GFP signal change (wild-type ribosome), % (test concentration not listed). hit rate 1.6% among 350,000;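 active means significant combined selectivity score with lowered wild-type GFP, culture density cut under 30%, mutant RFP and density less affected; inactive means any of these conditions unmet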; further: one replicate is shown; some compounds called inactive have numbers as strong as hits
FGF22 binding: shifts melting point of recombinant human FGF22. calls only at 9.99 µM. hit rate 1.5% among 340,000. Q9HCT0. recombinant FGF22 thermal shift, SYPRO orange fluorescence; percent of sucrose octasulfate shift, DMSO zero;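 active means melting point raised past a set limit in the mean and every replicate; three in four hits are not shown here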
Target sequence (Q9HCT0 whole entry, looked up): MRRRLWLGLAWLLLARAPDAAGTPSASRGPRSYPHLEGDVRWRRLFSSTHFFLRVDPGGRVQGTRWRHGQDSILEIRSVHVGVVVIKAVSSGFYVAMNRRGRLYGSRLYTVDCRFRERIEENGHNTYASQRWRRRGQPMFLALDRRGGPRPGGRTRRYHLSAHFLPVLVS
A1 inh: inhibitors of the anti-apoptotic protein A1, read as caspase activation. hit rate 0.066% among 330,000. AID 2462. MEF A1-2A-BIM cells, Caspase-Glo 3/7 luminescence, 3 h; percent of clofoctol response, vehicle zero. caspase activation, % (no concentration beside the values);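 active means over half of replicate activation scores above 10%, or exactly half above 10 with the replicate mean above 10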;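 further: wells of about 30 µL received 50 nL stock; many hits fall short of the cut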
Beta cell apopt: beta cell apoptosis inhibition | INS-1E cytokine-induced death, ATP luminescence, 48 h; percent of positive-control rescue, neutral wells zero | protection from apoptosis, % (test concentration not listed) | hit rate 0.8% among 300,000 | AID 435005;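 active means all replicates at 75% or more, or half of them and the mean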;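 further: 0% = cytokine-treated negative control wells and 100% = positive control rescue; higher means more ATP so stronger rescue from cytokine killing; wells of about 40 µL received 100 nL stock; the first replicate is given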
AF4-AF9 inh: inhibitors of human MLL-AF4/AF9 interaction. AlphaScreen, biotin-AF4 peptide binding to FLAG-AF9. P42568. hit rate 0.47% among 350,000. inhibition, % at 10 µM;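 active means every replicate reaching a set inhibition limit, whatever the replicate mean, cut at about 25% in these data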;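 further: 0% = plate neutral control median and 100% = total signal loss; the record names both 10 and 1 µM as test concentration; the first replicate is given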
Target sequence (P42568 whole entry, looked up): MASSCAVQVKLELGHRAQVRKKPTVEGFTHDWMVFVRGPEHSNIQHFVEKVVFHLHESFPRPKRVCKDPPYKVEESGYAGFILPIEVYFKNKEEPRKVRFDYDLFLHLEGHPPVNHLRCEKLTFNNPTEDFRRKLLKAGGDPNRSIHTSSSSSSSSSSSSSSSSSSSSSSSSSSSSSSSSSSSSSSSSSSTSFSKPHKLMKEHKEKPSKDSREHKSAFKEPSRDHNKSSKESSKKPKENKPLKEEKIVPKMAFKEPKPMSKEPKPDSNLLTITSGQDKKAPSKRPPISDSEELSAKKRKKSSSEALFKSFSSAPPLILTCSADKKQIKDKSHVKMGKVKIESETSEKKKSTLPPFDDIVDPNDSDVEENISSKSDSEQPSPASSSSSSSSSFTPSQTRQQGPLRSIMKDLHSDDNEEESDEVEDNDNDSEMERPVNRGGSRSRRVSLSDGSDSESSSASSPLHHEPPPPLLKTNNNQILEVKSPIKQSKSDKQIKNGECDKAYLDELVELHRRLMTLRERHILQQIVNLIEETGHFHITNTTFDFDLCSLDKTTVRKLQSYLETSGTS
T cruzi inh: blocks replication of Trypanosoma cruzi; T. cruzi beta-gal in NIH3T3, luminescence, 90 h; inhibition, % (concentration not given with the values); hit rate 1.4% among 300,000;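 active means mean inhibition across valid replicates above about 55%, limit read from the data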;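 further: signal also drops with host cell toxicity which is not excluded here; 0% = plate median of DMSO wells and 100% = zero luminescence signal; higher percent means less beta-gal luminescence so fewer parasites; stock transfer was 50 nL into about 50 µL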
UCH37 DUB inh: blocks the human deubiquitinase UCH37. hit rate 0.33% among 330,000. inhibition, % (test concentration not listed). Q9Y5K5. AID 588478. purified proteasome/UCH37, Ub-AMC cleavage fluorescence;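 active means mean of two replicates above 20%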;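 further: 0% = compound-free wells with enzyme and 100% = wells lacking proteasome; stock transfer was 100 nL into about 20 µL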
Target sequence (Q9Y5K5 whole entry, looked up): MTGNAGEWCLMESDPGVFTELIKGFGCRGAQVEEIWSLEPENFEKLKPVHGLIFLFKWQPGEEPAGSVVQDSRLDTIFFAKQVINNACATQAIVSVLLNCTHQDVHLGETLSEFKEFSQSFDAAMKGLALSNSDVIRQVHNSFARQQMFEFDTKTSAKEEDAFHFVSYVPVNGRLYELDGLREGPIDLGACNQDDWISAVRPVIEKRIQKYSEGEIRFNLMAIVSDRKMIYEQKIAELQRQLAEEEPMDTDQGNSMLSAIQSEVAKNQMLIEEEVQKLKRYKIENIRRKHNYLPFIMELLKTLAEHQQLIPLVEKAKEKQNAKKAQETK
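System: Proteasome-associated human UCH37 deubiquitinase; Input: 0.15 nM proteasome in added enzyme buffer; Also added: Ub-AMC substrate from 1 µM stock; Incubation: 30 min compound-proteasome preincubation then 25 min substrate reaction, room temperature; Detection: fluorescence, ex 355 nm, em 460 nm; Read-out: % inhibition of Ub-AMC cleavage fluorescence; Benchmarks: no-proteasome and no-compound wells.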
Ecoli growth: E. coli growth inhibition; AID 1053175; Escherichia coli growth, OD600, 23 h; hits give low values; OD600 absorbance (test concentration not listed); hit rate 0.21% among 330,000;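 active means OD600 absorbance below the run mean of sample wells minus 3.6 SD, in any replicate, cut at about 0.56 in these data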;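 further: stock transfer was 300 nL into about 60 µL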
rRNA inh HTS OD600: second read-out of rRNA inh HTS, no call of its own (marks repeat the call); OD600 change, %; measured here: OD600 growth;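 optical density of the mix in the first replicate; 0 = DMSO median and -100 = no signal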
rRNA inh HTS RFP: also measured in rRNA inh HTS; calls as there; RFP signal change, %; measured here: RFP humanized mutant strains;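 first replicate; 0 = DMSO median and -100 = no signal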
Active calls of the source: *; i = inactive; nt = no result given. The list is partial; the hit share may differ from the screen's.

SMILES	rRNA inh HTS	rRNA inh HTS OD600	rRNA inh HTS RFP	FGF22 binding	A1 inh	Beta cell apopt	AF4-AF9 inh	T cruzi inh	UCH37 DUB inh	Ecoli growth
Cc1ccc(S(=O)(=O)CC(=O)Nc2nnc(C(C)C)s2)cc1	0	5	-0.8	i	-1.0	-1	-1.5	-13	1.6	0.71
Cc1ccc(S(=O)(=O)N(CC(=O)NN=C2CCN(C)CC2)c2ccc(F)cc2)cc1	7	4	0.2	i	0.3	-2	-0.2	3	-2.6	0.72
CCc1ccc(/C=C2\SC(N3CCOCC3)=NC2=O)cc1	-22	-20	-3.9	i	0.3	-8	4.5	7	9.4	0.69
COc1ccc2c(c1)c1nc3ccccc3nc1n2CCCN1C(=O)c2ccccc2C1=O	nt	nt	nt	nt	0.1	-2	nt	28	3.6	0.73
Cc1ccc(C(=O)NCC(=O)N2CCCC(C(F)(F)F)C2)s1 (centres undefined)	7	8	-2.3	i	-0.5	nt	1.9	3	-0.2	0.69
CCOC(=O)C1(Cc2ccccc2)CCN(Cc2nccn2CC)CC1	8	8	11	i	0.3	-1	1.0	-2	1.2	0.67
CCc1n[nH]c2c1C(=O)CC(C)(C)C2	nt	nt	nt	nt	0.3	-2	nt	-6	6.0	0.77
O=C(NNC(=O)C1CC(=O)N(Cc2ccccc2)C1)c1ccc(F)cc1 (centres undefined)	11	13	1.2	i	0.4	-5	-2.9	-3	3.6	0.65
Cc1ccc(S(=O)(=O)N2CCN(C(=O)CCCOc3cccc(C)c3)CC2)cc1	-6	-13	2.9	i	-0.1	1	-5.9	nt	2.9	0.68
O=C1C=C(O)CC(c2cccs2)C1 (centres undefined)	nt	nt	nt	nt	-0.2	-5	nt	-2	1.4	0.65
NC(=S)N/N=C1\CC(n2nnnc2-c2ccccc2Cl)C2COC1O2 (centres undefined)	1	3	-0.9	nt	-0.2	-2	0.5	8	nt	nt
CCN1C(=O)N(C)C(N(O)C(=O)NC)C1(C)C (centres undefined)	nt	nt	nt	nt	0.5	nt	nt	-11	3.8	0.73
CCOC(=O)CN1NC2(CCCCCCC2)NC1=S	-1	1	0.3	i	0.4	-6	nt	-3	4.8	0.69
CC(=O)c1c(C)n(-c2ccccc2Br)c2ccc(O)cc12	0	0	-0.4	i	-0.2	-7	-0.4	-21	0.8	0.7
Cc1ccc(S(=O)(=O)NCCSc2nncn2C)cc1	5	10	2.1	i	-0.5	-3	-2.0	-5	3.6	0.68
Clc1ccc(C2=Nc3cc(Cl)ccc3OC2)cc1	-29	-30	4.4	i	0.2	6	0.7	2	-11	0.67
COc1ccc(OC)c(Nc2nc(N)c([N+](=O)[O-])c(NCc3ccccc3)n2)c1	19	18	-0.5	i	-0.3	12	-2.6	-3	nt	nt
CCCCCCN(C(=O)CCCCCN1C(=O)NC(c2ccc(C3CCCCC3)cc2)C(C(=O)OCc2ccccc2)=C1C)C(C(=O)NCCCC)c1ccc(OCC(=O)OC)c(C(=O)OC)c1 (centres undefined)	7	6	-7.1	i	nt	nt	3.0	11	3.9	nt
Cc1ccc(/C=N/NC(=O)c2ccc3ccccc3c2)s1	-17	5	0.5	i	-0.5	7	2.1	-24	nt	nt
O=C(COc1ccccc1)Nc1c(Cl)ccc2nsnc12	8	11	-1.8	i	0.2	4	0.6	-2	-3.0	0.71
Cc1ccccc1-c1nc2cc(NC(=O)C3CC3)ccc2o1	-5	-9	-1.7	i	-3.5	3	5.3	-13	-50	0.68
C=C(C)CN(CC)C(=O)CC1C(=O)NCCN1C (centres undefined)	16	21	0.0	i	-0.2	-6	-0.3	-4	-0.9	0.66
O=[N+]([O-])c1ccc(N2CCN(S(=O)(=O)c3ccc(Cl)cc3)CC2)cc1NCC1CCCO1 (centres undefined)	1	-4	0.4	nt	0.7	-1	nt	4	4.8	0.66
CC(NC(=O)C(=O)N1CCCCC1)C(c1cccs1)N1CCN(Cc2ccccc2)CC1 (centres undefined)	8	18	-2.5	i	-0.3	-5	-2.3	-15	0.1	0.67
CN(C)c1ccc(CNC(=O)C2CCN(S(=O)(=O)c3ccc4c(c3)oc(=O)n4C)CC2)cc1	2	9	-3.0	i	1.3	0	0.1	-2	1.3	0.66
CCc1ccc(NC(=O)C2CCN(S(C)(=O)=O)CC2)cc1	nt	nt	nt	nt	0.6	4	nt	15	1.4	0.67
CC(C)NC(=O)CSc1nccc(-c2cccs2)n1	0	-12	0.7	i	0.7	0	0.0	nt	2.2	0.63
O=C(Nc1c(C(=O)N2CCCCC2)cnn1-c1ccccc1)c1ccccc1F	16	15	0.1	i	0.5	-4	0.3	-5	4.4	0.72
COc1cc(-c2nnc(Sc3ccc(C(F)(F)F)cc3[N+](=O)[O-])o2)cc(OC)c1OC	nt	nt	nt	nt	0.2	-2	nt	10	-0.9	0.68
O=C(NCC(=O)N(c1cccnc1)C(C(=O)NC1CCCC1)c1ccco1)c1cccs1 (centres undefined)	nt	nt	nt	nt	-1.6	nt	nt	-2	7.4	0.71

As entered above.
Reading for CCc1ccc(NC(=O)C2CCN(S(C)(=O)=O)CC2)cc1 in Ecoli growth: 0.67
Reading for O=C(COc1ccccc1)Nc1c(Cl)ccc2nsnc12 in UCH37 DUB inh: -3.0

Next part:
SMILES	rRNA inh HTS	rRNA inh HTS OD600	rRNA inh HTS RFP	FGF22 binding	A1 inh	Beta cell apopt	AF4-AF9 inh	T cruzi inh	UCH37 DUB inh	Ecoli growth
COC(=O)[C@]1(C)CCC[C@@]2(C)C3CC[C@@]4(C)C[C@]3(CCC21)CC(=O)N4 (some centres undefined)	-28*	-21*	-9.1*	i	0.2	-7	nt	nt	0.4	0.66
COc1cccc(CN(C)C(=O)CN2C(=O)NC3(CCCc4ccccc43)C2=O)c1 (centres undefined)	-1	-2	-0.5	i	-0.4	-3	-0.4	nt	0.7	0.68
Cc1cc(C(=O)O)ccc1N/C=C1\CCCC(C)C1=O (centres undefined)	nt	nt	nt	nt	0.0	-2	nt	-14	1.7	nt
O=C(C1CCCN(S(=O)(=O)c2cccs2)C1)N1CCN(C2CCCCC2)CC1 (centres undefined)	nt	nt	nt	nt	-0.1	-2	nt	17	1.2	0.76
CCCCCc1c(O)nc(SCCN2CCOCC2)[nH]c1=O	16	19	-0.3	i	0.5	3	-1.3	-9	6.4	0.72
O=C(/C=C/c1cccc([N+](=O)[O-])c1)NCc1cccnc1	nt	nt	nt	nt	0.6	-4	nt	5	1.3	0.67
COc1ccc(NS(=O)(=O)c2cccc(C(=O)NNC(=O)CNC(=O)c3ccco3)c2)cc1	3	3	-1.1	i	0.2	-18	-0.8	-10	1.2	0.71
O=C(Nc1ccc(C(=O)NC2CCCCC2)cc1)c1cncc(Br)c1	21	19	1.4	i	2.2	-3	0.0	17	nt	nt
COCCN1C(=O)N[C@@H](CCc2ccccc2)[C@@H](C(=O)OC)[C@H]1C	1	-3	3.8	i	0.1	-3	4.0	-13	0.2	nt
CC(C)Oc1ccc(C(=O)OCC(=O)N2CCCc3ccccc32)cc1	-16	-35	-1.9	i	0.0	1	-0.7	-11	1.3	0.67

Compounds listed so far containing bromine (2):
SMILES	rRNA inh HTS	rRNA inh HTS OD600	rRNA inh HTS RFP	FGF22 binding	A1 inh	Beta cell apopt	AF4-AF9 inh	T cruzi inh	UCH37 DUB inh	Ecoli growth
CC(=O)c1c(C)n(-c2ccccc2Br)c2ccc(O)cc12	0	0	-0.4	i	-0.2	-7	-0.4	-21	0.8	0.7
O=C(Nc1ccc(C(=O)NC2CCCCC2)cc1)c1cncc(Br)c1	21	19	1.4	i	2.2	-3	0.0	17	nt	nt

Continuation:
SMILES	rRNA inh HTS	rRNA inh HTS OD600	rRNA inh HTS RFP	FGF22 binding	A1 inh	Beta cell apopt	AF4-AF9 inh	T cruzi inh	UCH37 DUB inh	Ecoli growth
c1ccc(-c2cc3ccccc3nc2N2CCCC2)cc1	nt	nt	nt	nt	-0.6	0	nt	4	-26	0.7
O=C(CSc1nnc(-c2cccc(Br)c2)o1)N1CCOCC1	3	3	0.0	i	-2.4	-6	-8.8	2	-1.9	0.68
C=C(C)c1cccc(C(C)(C)NC(=O)NCCCn2ccnc2)c1	2	1	-2.4	i	1.1	-8	3.9	-2	1.5	0.66
CC1CCCN(c2c([N+](=O)[O-])cc(C(=O)O)cc2[N+](=O)[O-])C1 (centres undefined)	-11	-24	1.2	i	-0.1	-12	1.6	-46	4.1	0.68
CSc1ccc(CNCC2CCCO2)cc1 (centres undefined)	17	14	-1.6	i	1.3	-9	0.4	11	3.5	0.7
O=C(CSc1cccc(C(F)(F)F)c1)NC(=O)c1ccccc1	-4	-1	-3.0	i	0.6	2	-4.9	-6	0.9	0.68
CCOc1cc2[nH]c(=O)n(CCCCCC(=O)NCc3ccco3)c(=O)c2cc1OCC	nt	nt	nt	nt	-0.8	nt	nt	7	-5.3	0.72
COc1ccccc1C(=O)C1CCCN(Cc2cccc3nccnc23)C1 (centres undefined)	7	9	0.3	i	0.5	1	1.5	15	-0.8	0.72
COC(=O)c1cnn(-c2ccccc2)c1-n1cccc1C=O	13	12	0.8	nt	-0.2	-2	-1.3	-6	-1.5	0.72
CC(=O)c1cccc(NC(=O)N2CCN(S(C)(=O)=O)CC2)c1	15	13	-9.2	i	0.1	-1	5.0	-8	1.7	0.7
Cc1nonc1C1CCCN1C(=O)c1cc(COc2ccc(F)cc2Cl)on1 (centres undefined)	-28	-49	21	i	0.3	-1	-2.0	20	5.1	0.72
Cc1ccccc1C(=O)N1CCC(C(=O)N2CCN(Cc3ccc4c(c3)OCO4)CC2)CC1	nt	nt	nt	i	-0.7	1	-2.0	nt	-0.2	0.63
CCOc1ccc(OCCNC2CCCC2)cc1	nt	nt	nt	nt	1.1	8	nt	4	3.9	0.66
CC(=O)Nc1cc(OC(=O)c2ccco2)cc(OC(=O)c2ccco2)c1	nt	nt	nt	nt	0.6	-11	nt	-3	7.4	0.73
CCCc1cc(=O)n2[nH]c(-c3ccccc3)cc2n1	nt	nt	nt	nt	-0.5	-7	nt	-5	3.3	0.71
O=C(COc1ccc2c(c1)CCC2)NCc1ccccc1	-9	-15	-12	i	0.5	0	-1.4	-18	1.8	0.63
O=C(OCc1ccc(Br)cc1)c1cccnc1	-1	-5	-6.4	i	-1.7	-8	0.6	2	3.1	0.55
COc1cc(CCCN2C(=O)C(=O)NC[C@@H]2Cc2ccc(O)cc2)cc(OC)c1OC	12	12	-4.9	i	2.2	-4	3.0	-7	2.0	nt
Cc1ccc2c(c1)C(=NC1CCCCC1)c1cc3ccccc3nc1-2	6	12	-3.7	i	-5.8	-1	2.3	-5	2.2	0.62
O=C(CCSc1nc2cc(Cl)ccc2o1)N1CCOCC1	nt	nt	nt	nt	-0.2	0	nt	-11	1.0	0.61
CSc1nc(-c2ccccc2)nn1S(=O)(=O)c1ccccc1	nt	nt	nt	nt	-1.1	4	nt	-12	3.7	0.8
CN(C)/C=C/C(=O)c1ccc(-n2cccc2)cc1	-11	-14	-0.4	i	0.7	4	3.4	-5	22*	0.59
NC(=O)C1CCCN(C(=O)Nc2cccc3ccccc23)C1 (centres undefined)	nt	nt	nt	nt	-0.1	-1	nt	-7	0.7	0.68
CCOC(=O)N1CCN(C(=O)CSCc2ccc(C)cc2)CC1	nt	nt	nt	nt	0.0	5	nt	-10	2.0	0.7
CCCN(CC1CCCO1)C(=O)c1cc(COc2cccc(OC)c2)on1 (centres undefined)	-5	-8	0.0	i	0.0	3	-1.8	2	-0.7	0.65

From PubChem
